# Screens from PubChem BioAssay.
# Mtb hypoxia inh: PubChem AID 1159583; M. tuberculosis hypoxia-regulated fluorescent reporter, fluorescence; fluorescence inhibition, % (test concentration not listed); actives 0.1% (n = 300,000);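 active means 35 to 45% if threefold the growth effect, above 45% if 1.5-fold the growth effect; inactive means the rest, general growth blockers included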;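 further: wells of about 50 µL received 100 nL stock; 0% = vehicle wells and 100% = reference inhibitor wells; whole bacteria with a GFP reporter of the hypoxia response; strong numbers were not always called active; many hits fall short of the cut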
# PrP 5UTR inh: inhibition of PrP 5' UTR reporter expression; actives 0.35% (n = 340,000); cell-based PrP 5' UTR mRNA reporter, plate reader; inhibition, % (no concentration beside the values);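 active means every replicate at 50% or more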;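 further: 0 = median of the neutral control wells; tested in H4 reporter cells; numbers are from one replicate; inactives centre near -14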
# Sa ugtP lethal: growth inhibition of ugtP-null S. aureus, primary screen, RN4220 ugtP deletion, OD600 | growth inhibition, % (no concentration beside the values) | actives 0.54% (n = 330,000) | 16 h; some inactives read as strong as hits | AID 1259309, 2017;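 active means z-score under -3 and OD600 up to 0.15 on both plates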;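 further: plate controls were untreated wells for no effect and antibiotic for full effect; wells of about 80 µL received 100 nL stock; the first replicate is given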
# Autofluor counter: counter-screen for toxin protease inhibitors: compound fluorescence; fluorescence intensity (concentration not given with the values); actives 3.1% (n = 360,000); compound autofluorescence counterscreen, microsphere flow cytometry; hits give high values; AID 624483;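 active means at least 3 SD above the mean of all compounds, about 16000 in these data; inconclusive means too few beads counted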;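 further: 100 nL of 1 mM stock went into each well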
# BJeLR viability: MLPCN primary cell-based screen for lethality selective to Ras in HRASV12 cells; BJeLR (HRASV12) viability, CellTiter-Glo ATP luminescence, 48 h; reference of the scale not given here; inhibition, % (test concentration not listed); actives 0.17% (n = 300,000);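 active means replicate mean above 50%; inconclusive means above 50% but judged a plate artefact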;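 further: 50 nL library stock added to about 25 µL; numbers are from one replicate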
# RN4220 kill: growth inhibition of S. aureus RN4220, primary screen, OD600. 16 h. inhibition, % (test concentration not listed). actives 0.33% (n = 330,000);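 active means z-score of -3 or lower and OD600 up to 0.18 on both plates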;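 further: plate controls were untreated cells for no effect and reference antibiotic for full effect; stock transfer was 100 nL into about 80 µL; one replicate is shown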
# Mtb hypoxia inh growth: further read-out of Mtb hypoxia inh, marked with its call; growth inhibition, %; measured here: M. tuberculosis growth (absorbance);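 0% = vehicle and 100% = reference antibiotic; read after six days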
# The depositor's hits bear a star; u = inconclusive; x = not tested or not shown.
canonical_smiles,Mtb hypoxia inh,Mtb hypoxia inh growth,PrP 5UTR inh,Sa ugtP lethal,Autofluor counter,BJeLR viability,RN4220 kill
CC(=O)Oc1ccc2c(=O)oc(-c3ccc([N+](=O)[O-])cc3)nc2c1,-2,8,6,13,3573,0,1.5
CCCOc1ccc(C(O)=C2C(=O)C(=O)N(CCCOC)C2c2cccnc2)cc1 (stereo unspecified),-6,4,x,-5,x,x,-2.4
NS(=O)(=O)c1ccc(NC(=S)N2CCC(O)CC2)cc1,6,11,-2,3,4385,14,8.6
Cc1ccc(S(=O)(=O)N2CCOCC2)cc1NC(=O)COC(=O)/C=C/c1ccco1,-3,2,-15,5,2841,x,3.6
Nc1ncnc2c1nc(Sc1ccc(Cl)cc1)n2C1OC2COP(=O)(O)OC2C1O (stereo unspecified),-6,-4,x,6,x,x,10
CCC(=O)Nc1nc2ccccc2n1CCN(CC)CC,6,-2,-22,7,8133,-1,1.1
Cn1c(=O)c(C(=O)Nc2ncccc2O)c(O)c2ccccc21,9,-2,-53,13,10452,-10,8.5
COC(=O)c1cn(CC(=O)NCc2ccco2)c2ccccc12,x,x,-39,5,4476,10,-1.7
CCOc1ccc(NC(=O)CN(C)C(=O)CC2CCCC2)cc1OCC,0,2,-21,1,2801,x,0.3
CCOc1cc(N2CCOCC2)c(OCC)cc1NC(=O)COC(=O)c1ccccc1OC(F)F,5,11,-20,2,4771,x,2.9
Cc1nc(N2CCOCC2)[nH]c(=O)c1CCC(C)C,-3,-4,-11,2,16493*,7,-1.7
CCOC(=O)Nc1cc(C(=O)OCC)c(C)nc1C,-2,13,-6,6,3141,-5,2.7
O=C(O)CCCC(=O)Nc1ccc(Oc2ncnc3cc(Cl)ccc23)nc1,3,8,-15,-2,5732,0,1.5
Cc1ccc(CN2CCN(Cc3cccn3-c3nccs3)CC2CCO)cc1 (stereo unspecified),2,14,-19,6,4501,1,2.8
CCOc1ccc(S(=O)(=O)c2c[nH]c3ccc(C)cc3c2=O)cc1,-7,-3,-21,-2,3305,6,5.1
CC(NC(=O)c1ccco1)c1nc(-c2ccc(Cl)cc2)no1 (stereo unspecified),5,0,-2,6,3957,1,0.3
CCNC(=S)NNc1ccccc1,10,-9,-22,1,5717,7,4.2
Cc1ccccc1NC(=O)CN1CCN(Cc2ccccc2)CC1,16,4,-8,3,3522,2,0.1
Cc1ccc(Nc2ccc(C(=O)NC3CCCCC3)cn2)cc1,-4,8,-6,0,5398,-5,-7.5
O=C(NCc1ccccc1)c1ccc(Br)cc1,x,x,-14,1,3591,4,-1.2
CCOC(=O)c1c(CN(C)C)n(C)c2c(O)c(N=NC(N)=O)c3ccc(Br)cc3c12,14,27,-16,1,3949,5,47
CC1(C)C2CCC1(C)C(OC(=O)CNc1ccccc1)C2 (stereo unspecified),13,4,-20,2,3964,15,6.9
CN(C(=O)CSC1=NC2C(N=N1)c1cc(Br)ccc1N2C)C1CCCCC1 (stereo unspecified),-4,-6,-22,-10,4551,-1,3.6
Cc1noc(C)c1CCC(=O)N1CCCC(CCC(=O)NCc2ccccc2F)C1 (stereo unspecified),5,1,x,9,x,1,2.3
Fc1ccccc1Sc1ccccc1CNC1=NCCN1,-5,7,-18,0,9388,6,-6.0
CC(C)CC(=O)Nc1ccc2oc(-c3ccncc3)nc2c1,-6,5,-19,2,3170,-7,12
N/C(=N\OC(=O)c1ccc(Cl)c(Cl)c1)c1ccccn1,14,11,-35,-1,9865,18,4.0
CC(C)(C)c1ccc(NC(=O)N2CCCN(c3c(Cl)cncc3Cl)CC2)cc1,-7,3,-10,9,x,6,-8.4
O=C(OCC(=O)N1CCN(C(=O)c2ccco2)CC1)c1ccccc1C(=O)c1ccccc1,8,7,-18,-1,2924,3,-12
CC(C(=O)Nc1cc([N+](=O)[O-])ccc1Cl)N1CCN(c2ccccc2)CC1 (stereo unspecified),8,6,-25,-1,2120,1,1.9
Cc1cccc(NC(=O)C2CCCN(S(=O)(=O)c3ccc4[nH]c(=O)ccc4c3)C2)c1 (stereo unspecified),x,x,-25,2,5452,-10,4.0
Cc1ccc(S(=O)(=O)Nc2ccc(S(=O)(=O)NC(C)(C)C)cc2)cc1,2,8,-11,6,15999,-3,3.6
CCOC(=O)CSc1ncc(OC)c(=O)[nH]1,7,11,-1,0,10007,-3,7.9
CS(=O)(=O)N(Cc1ccccc1)c1ccc(C(=O)NCc2ccccc2)cc1,2,2,-23,6,22531*,-8,-0.5
COCCCNC(=O)Cn1ccc(NC(=O)OCc2ccccc2)nc1=O,-8,-13,-13,11,2951,x,23
COC(=O)c1cc2ccccc2c(=O)s1,7,4,-20,-1,2842,-1,5.0
COc1cc(Cl)cc(C=O)c1OCC(=O)O,-1,-2,-9,4,4514,-18,4.4
CN(C)CCCN(C(=O)c1cc2ccccc2oc1=O)c1nc2c(F)cccc2s1,-2,-2,-14,0,8547,0,-2.9
O=C(c1ccccc1C(=O)N1CCN(c2ccc(F)cc2)CC1)N1CCN(c2ccc(F)cc2)CC1,-7,3,-7,-5,7795,-9,1.5
COc1ccccc1C(=O)NCCC(=O)OCC(=O)Nc1ccc(S(N)(=O)=O)cc1,0,10,-13,-9,3789,x,-1.3
Cc1cccc(C)c1NC(=O)Cn1c(=O)n(CCCC(=O)NC2CCN(Cc3ccccc3)CC2)c(=O)c2ccccc21,11,1,-21,4,4011,-8,0.8
C#CCNC(=O)c1ccc(OCc2ccccc2)cc1Cl,14,9,-24,2,4373,2,6.8
COc1ccc(/C=N\NC(=O)c2ccc([N+](=O)[O-])c(C)c2)cc1COc1ccccc1C(N)=O,x,x,-22,x,6029,-5,x
O=C(CN1C(=O)NC2(CCCC2)C1=O)Nc1ccc(C(F)(F)F)cc1,-4,-8,1,-5,3263,7,14
O=C(O)C1C2CCC(O2)C1C(=O)Nc1ccc(Cl)cc1F (stereo unspecified),x,x,-17,x,4248,7,x
NS(=O)(=O)c1ccc(Nc2ccccc2)c([N+](=O)[O-])c1,10,3,-1,4,2645,5,3.5
CC(C)CC(CN(C)N=O)N(CC(Cc1ccccc1)N(CCc1ccccc1)N=O)N=O (stereo unspecified),18,6,x,18,x,x,12
COc1ccc2cc(C(=O)NCc3ccco3)c(=O)oc2c1,-12,-5,-73,-4,2597,-5,-3.8
CSc1cccc(NC(C)=O)c1,8,6,-23,2,2482,15,6.1
Cc1nn(C)c(C)c1CNC(=O)/C=C/c1ccccc1F,x,x,-13,x,2505,-5,x

# Later entries:
canonical_smiles,Mtb hypoxia inh,Mtb hypoxia inh growth,PrP 5UTR inh,Sa ugtP lethal,Autofluor counter,BJeLR viability,RN4220 kill
Cc1csc(NC(=O)c2ccco2)n1,6,10,-43,-1,2478,-1,5.3
CCC(=O)Nc1c2c(nn1-c1ccccc1)CSC2,9,-3,-10,-7,5312,-9,5.4
CC(=Nc1ccc(C)c(C)c1)C1=C(O)CCC1=O,x,x,-14,11,2172,0,5.7
O=C(COC(=O)c1ccc2ncsc2c1)NC(=O)NCc1ccccc1,12,5,-23,8,4321,-1,-0.6
O=[N+]([O-])c1cc([N+](=O)[O-])c(Oc2cc(Cl)cc(Cl)c2)cc1NN1CCCCC1,23,5,-27,7,4502,x,3.8
O=c1[nH]c(=O)c2nnc(NN=Cc3ccc(O)cc3)nc2[nH]1,6,-4,x,7,x,x,-1.8
COc1cccc(OCC(O)CN2CCC(Cc3ccccc3)CC2)c1 (stereo unspecified),x,x,-18,-1,2765,0,-3.7
COc1cccc(OC)c1C(=O)OCc1c(-c2ccccc2)ncc2ccccc12,14,10,-5,8,4209,x,6.0
Nc1nc2c(ccc3ccccc32)s1,-5,2,-22,11,6305,-3,0.3
N#CCCn1cc(C(CC(=O)c2ccccc2)C(=O)O)c2ccccc21 (stereo unspecified),x,x,-18,3,4020,4,1.0
COc1cccc(OC)c1C(=O)Nc1ccnn1C,16,8,-8,10,3885,-3,4.0
CCOc1ccc(NC(=O)Cn2sc3nc(C)cc(C)c3c2=O)cc1,11,8,-14,7,u,-5,1.4
COc1ccc(-n2nc(C(=O)N3CCCCC3)c3ccccc3c2=O)cc1,x,x,-46,1,3570,x,5.2
COc1ccc(-c2noc(CCCOc3ccc(Cl)cc3Cl)n2)cc1,7,-1,-14,35,3484,2,1.1
Cc1ncc([N+](=O)[O-])n1CC(=O)NCCc1ccccc1,8,8,-6,7,3146,6,4.3
S=c1[nH]nc(COc2ccccc2)n1N=Cc1ccncc1,0,6,x,4,x,x,6.4
COc1ccc(OC)c(NC(=O)c2cnc(Nc3ccccc3OC)c3ccccc23)c1,3,3,-32,12,7151,9,6.9
CC(C)c1ccc(C2C(C(=O)c3ccco3)=C(O)C(=O)N2CC2CCCO2)cc1 (stereo unspecified),-12,-9,-29,-3,3656,-2,2.3
COc1cc(OC)c(Nc2cc(C)nc3nc(C)nn23)cc1Cl,x,x,-20,-2,5885,3,4.2
Cc1[nH]n(-c2ccccc2)c(=O)c1/C=N/NC(=O)C(C)C,x,x,-10,x,4186,3,x
COc1ccc(NC(=O)CN(C)S(=O)(=O)c2ccc(Br)s2)cc1,7,-2,15,6,4307,-4,4.7
O=C(O)c1sccc1NC(=O)c1c(Cl)cccc1Cl,11,6,-26,3,3363,4,5.7
O=C1NC2c3ccccc3CC2O1 (stereo unspecified),1,0,-24,15,3476,-2,7.4
C=CCC1(C#N)C(=S)NC2=C(C(=O)CC(C)(C)C2)C1c1ccc(Br)cc1 (stereo unspecified),4,1,-9,2,2396,-3,2.5
S=C(Nc1ccccc1)Nc1ccc(OCc2ccc(Cl)cc2Cl)cc1,11,26,89*,-23,3863,1,-7.4
CN1CCN(C(=O)c2cnn(-c3ccccc3)c2NC(=O)c2ccccc2Cl)CC1,10,4,-23,8,5059,2,-1.6
Cc1cccc(N2CCN(C(=O)CCn3c(=O)[nH]c4ccccc4c3=O)CC2)c1C,10,16,-9,-1,3596,-10,4.5
CO/N=C\c1cc(C(=O)c2ccc(Cl)cc2Cl)cn1C,x,x,-34,x,4094,-1,x
O=S(=O)(c1ccc(NC(=S)N/N=C/c2ccc(N3CCOCC3)cc2)cc1)N1CCOCC1,x,x,-1,x,2398,7,x
CN(c1ccc(OCc2nnc(-c3ccccc3)o2)cc1)S(=O)(=O)c1ccccc1,x,x,-16,1,2216,-1,3.2
COC(=O)CC1NCCc2cc(OC)c(OC)cc21 (stereo unspecified),1,-4,-19,0,4015,-12,1.1
O=C(CCN1CCCCO1)N1CCCC(Nc2ccc(F)cc2)C1 (stereo unspecified),5,11,-8,7,6189,15,-3.7
COc1ccc(CC(=O)NCc2nnc(SCC(=O)Nc3ncc(C)s3)n2C)cc1,-2,-3,-46,9,3955,3,4.3
COc1cccc(Cn2nnc(C(=O)NCCc3ccc(Cl)cc3)c2N)c1,x,x,-25,6,4620,-3,-1.7
COC(=O)CSc1[nH]c2ccccc2c1[N+](=O)[O-],x,x,-10,0,3619,-3,13
CCOc1cc(C2NC(=O)NC(O)(C(F)(F)F)C2C(=O)c2ccc(Cl)cc2)ccc1O (stereo unspecified),9,6,-11,7,11001,-9,13
COc1cccc(-c2noc(CCC(=O)NCCc3ccccc3)n2)c1,-1,3,x,-1,3572,5,-2.8

# Four entries from above, field by field.
> COc1ccc(CC(=O)NCc2nnc(SCC(=O)Nc3ncc(C)s3)n2C)cc1
  Mtb hypoxia inh: -2
  Mtb hypoxia inh growth: -3
  PrP 5UTR inh: -46
  Sa ugtP lethal: 9
  Autofluor counter: 3955
  BJeLR viability: 3
  RN4220 kill: 4.3

> COc1cccc(Cn2nnc(C(=O)NCCc3ccc(Cl)cc3)c2N)c1
  Mtb hypoxia inh: x
  Mtb hypoxia inh growth: x
  PrP 5UTR inh: -25
  Sa ugtP lethal: 6
  Autofluor counter: 4620
  BJeLR viability: -3
  RN4220 kill: -1.7

> COC(=O)CSc1[nH]c2ccccc2c1[N+](=O)[O-]
  Mtb hypoxia inh: x
  Mtb hypoxia inh growth: x
  PrP 5UTR inh: -10
  Sa ugtP lethal: 0
  Autofluor counter: 3619
  BJeLR viability: -3
  RN4220 kill: 13

> CCOc1cc(C2NC(=O)NC(O)(C(F)(F)F)C2C(=O)c2ccc(Cl)cc2)ccc1O (stereo unspecified)
  Mtb hypoxia inh: 9
  Mtb hypoxia inh growth: 6
  PrP 5UTR inh: -11
  Sa ugtP lethal: 7
  Autofluor counter: 11001
  BJeLR viability: -9
  RN4220 kill: 13
